Source: PubChem BioAssay
Vif TR-FRET: inhibitors of Vif binding to APOBEC3G peptide, primary screen, biochemical, TR-FRET, GST-Vif 1-94, biotin-A3G peptide, dose response retest (AID 1117319) | inhibition, %; hits with a dose series show IC50 in µM | TR-FRET GST-Vif / biotin-A3G peptide binding; higher % means a stronger effect; test concentration not given here; strong numbers were not always called active | hit rate 0.57% among 260,000;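 active means above the screen mean plus three standard deviations and confirmed in dose response; inconclusive means results disagree or hit not tested in dose response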;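 further: Vif residues 1-94 fused to GST binding biotinylated APOBEC3G peptide 110-148; 0% = full assay without inhibitor and 100% = GST in place of GST-Vif; retest series ran down from 100 µM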
A1 inh: inhibitors of the anti-apoptotic protein A1, read as caspase activation; MEF A1-2A-BIM cells, Caspase-Glo 3/7 luminescence, 3 h; percent of clofoctol response, vehicle zero; hit rate 0.066% among 330,000; caspase activation, % (no concentration beside the values);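 active means over half of replicate activation scores above 10%, or exactly half above 10 with the replicate mean above 10; inconclusive means replicate mean below 10 yet half the replicates above 10; inactive means over half of replicates below 10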;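 further: wells of about 30 µL received 50 nL stock; many hits fall short of the cut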
RanGTP-Impb inh: inhibitors of RanGTP-importin-beta interaction, primary screen, biochemical, FRET, CFP-Ran, YFP-importin-beta, homogeneous; cell-free CFP-Ran/YFP-importin-beta FRET ratio; inhibition, % (concentration not given with the values); hit rate 1.1% among 300,000; AID 2216;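 active means most replicates above 15%; inconclusive means exactly half above 15%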;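 further: 0% = DMSO wells and 100% = Ran loaded with GDP instead of GTP; wells of about 40 µL received 100 nL stock; the first replicate is given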
Calb FLC: affects C. albicans growth with fluconazole | growth inhibition, % (test concentration not listed) | hit rate 0.57% among 300,000 | AID 1979 | C. albicans CaCi-2 (fluconazole-resistant clinical isolate) + fluconazole, Alamar Blue growth, 48 h;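 active means most replicates above 75%; inconclusive means exactly half above 75%; inactive means most below 75%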;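 further: all wells also contain fluconazole at 8 µg/ml as a sub-toxic cotreatment; 0% = median of DMSO wells and 100% = median of geldanamycin control wells; wells of about 8 µL received 7.5 nL stock; the first replicate is given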
T cruzi inh: blocks replication of Trypanosoma cruzi. inhibition, % (no concentration beside the values). hit rate 1.4% among 300,000. T. cruzi beta-gal in NIH3T3, luminescence, 90 h. AID 1885;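 active means mean inhibition across valid replicates above about 55%, limit read from the data; inconclusive means mean below that limit but half or more replicates reach it; inactive means mean below it, under half of replicates reach it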;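 further: signal also drops with host cell toxicity which is not excluded here; 0% = plate median of DMSO wells and 100% = zero luminescence signal; higher percent means less beta-gal luminescence so fewer parasites; stock transfer was 50 nL into about 50 µL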
LANA-H2A inh: blocks KSHV LANA binding to histone H2A/H2B; Q9QR71; cell-free LANA-H2A/H2B peptide, fluorescence polarization; inhibition, % (concentration not given with the values); hit rate 0.6% among 320,000; AID 2629; in the data active means inhibition mostly above about 10%, no sharp cut-off; inactive means mostly below about 6.7%;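 further: stock transfer was 7.5 nL into about 10 µL; 0% = median of vehicle wells and 100% = median of positive control wells; one replicate is shown; the record names a cut of 25% in any replicate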
Beta apoptosis: beta cell apoptosis inhibition. AID 435005. INS-1E cytokine-induced death, ATP luminescence, 48 h; percent of positive-control rescue, neutral wells zero. protection from apoptosis, % (test concentration not listed). hit rate 0.8% among 300,000;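 active means all replicates at 75% or more, or half of them and the mean; inconclusive means half reach 75% but not the mean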;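 further: 0% = cytokine-treated negative control wells and 100% = positive control rescue; higher means more ATP so stronger rescue from cytokine killing; wells of about 40 µL received 100 nL stock; the first replicate is given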
AF4-AF9 inh: blocks AF4 peptide binding to human AF9. P42568. hit rate 0.47% among 350,000. AlphaScreen, biotin-AF4 peptide binding to FLAG-AF9. inhibition, % at 10 µM;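 active means every replicate reaching a set inhibition limit, whatever the replicate mean, cut at about 25% in these data; inconclusive means mean inhibition reaches that limit but some replicates miss it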;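 further: 0% = plate neutral control median and 100% = total signal loss; the record names both 10 and 1 µM as test concentration; the first replicate is given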
Target sequence (P42568 whole entry, looked up): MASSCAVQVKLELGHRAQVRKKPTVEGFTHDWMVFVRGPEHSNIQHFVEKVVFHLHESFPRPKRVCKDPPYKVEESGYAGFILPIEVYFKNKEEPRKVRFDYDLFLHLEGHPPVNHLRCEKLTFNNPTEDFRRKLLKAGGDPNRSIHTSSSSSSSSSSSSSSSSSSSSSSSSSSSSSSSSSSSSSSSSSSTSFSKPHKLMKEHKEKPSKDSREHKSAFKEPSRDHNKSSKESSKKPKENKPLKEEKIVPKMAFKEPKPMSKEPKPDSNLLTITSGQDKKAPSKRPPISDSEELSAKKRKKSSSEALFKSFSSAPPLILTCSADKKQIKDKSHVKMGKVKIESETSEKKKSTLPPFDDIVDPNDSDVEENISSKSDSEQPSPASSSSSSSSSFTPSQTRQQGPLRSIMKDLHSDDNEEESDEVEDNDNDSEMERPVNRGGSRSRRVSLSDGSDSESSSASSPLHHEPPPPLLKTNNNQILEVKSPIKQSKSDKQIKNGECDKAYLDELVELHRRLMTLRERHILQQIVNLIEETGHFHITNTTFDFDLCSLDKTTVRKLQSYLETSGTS
The depositor's hits bear a star.

How did COCCNC(=O)c1cn(C)c2ccc(S(=O)(=O)N3CCCC3)cc2c1=O do in these assays?
Vif TR-FRET: 4%; A1 inh: -0.7; RanGTP-Impb inh: 1.2; Calb FLC: 3; T cruzi inh: 0; LANA-H2A inh: 1.3; Beta apoptosis: -3; AF4-AF9 inh: 0.5

What do the screens show for `CC1CCc2sc(C(=O)NC3CCN(Cc4ccccc4)CC3)cc2C1` (stereo not drawn)?
Vif TR-FRET: 0%; A1 inh: 0.4; LANA-H2A inh: -7.0; Beta apoptosis: 1; AF4-AF9 inh: 5.6

What do the screens show for `COc1cccc(Oc2c(C)oc3c(CN4CCCCC4)c(O)ccc3c2=O)c1`?
Vif TR-FRET: -1%; A1 inh: 0.6; RanGTP-Impb inh: 1.3; Calb FLC: 8; T cruzi inh: 4; LANA-H2A inh: 4.8; Beta apoptosis: 4; AF4-AF9 inh: -2.6

Results for CC(=O)OCc1cc(=O)n(C)c(=O)n1C ?
Vif TR-FRET: 15%; A1 inh: 1.4; RanGTP-Impb inh: 4.2; Calb FLC: -8; T cruzi inh: -8; LANA-H2A inh: 2.7; Beta apoptosis: -3

What do the screens show for `Cc1cc(C)n2nc(SCC(=O)Nc3ccc(F)cc3[N+](=O)[O-])nc2n1`?
A1 inh: 0.4; LANA-H2A inh: -0.7; Beta apoptosis: -9; AF4-AF9 inh: 1.2

Results for O=C(CN1CCCCCC1)NCCN1C(=O)S/C(=C\c2ccccc2Cl)C1=O ?
Vif TR-FRET: -1%; A1 inh: -1.3; RanGTP-Impb inh: 1.5; Calb FLC: -32; T cruzi inh: -3; LANA-H2A inh: -0.3; Beta apoptosis: -6; AF4-AF9 inh: 1.9

What do the screens show for `O=C(CN1CCN(c2ccc(F)cc2)CC1)Nc1ccc(S(=O)(=O)N2CCOCC2)cc1`?
Vif TR-FRET: -5%; A1 inh: -0.3; RanGTP-Impb inh: inconclusive; Calb FLC: -8; T cruzi inh: 11; LANA-H2A inh: 6.0; Beta apoptosis: -1; AF4-AF9 inh: 1.5

What do the screens show for `Cc1ccc(CCNC(=O)Cn2ccc3cc(S(=O)(=O)N4CCCC4)ccc32)cc1`?
A1 inh: -0.2; RanGTP-Impb inh: -1.4; Calb FLC: 3; T cruzi inh: -10; LANA-H2A inh: -0.3; Beta apoptosis: 0; AF4-AF9 inh: -4.3

What do the screens show for `C/C(=N\NC(=O)COc1cccc(Br)c1)c1ccc2c(c1)OCCO2`?
A1 inh: -0.5; LANA-H2A inh: 2.2; Beta apoptosis: -6; AF4-AF9 inh: -1.0

How did Cc1ccc2[nH]c3c(c2c1)CCc1cn[nH]c1-3 do in these assays?
Vif TR-FRET: 0%; A1 inh: 0.5; RanGTP-Impb inh: 4.1; Calb FLC: 32; T cruzi inh: 2; LANA-H2A inh: 3.1; Beta apoptosis: 0

How did COc1ccc2c(c1)C(=O)CC(c1ccccc1F)O2 (stereo not drawn) do in these assays?
Vif TR-FRET: 2%; A1 inh: 0.3; LANA-H2A inh: -6.7; Beta apoptosis: -4; AF4-AF9 inh: 1.0

Results for COc1ccccc1C(CNC(=O)CNC(=O)c1ccc(C)c(C)c1)N1CCCC1 (stereo not drawn) ?
Vif TR-FRET: 5%; A1 inh: 0.8; LANA-H2A inh: -3.8; Beta apoptosis: -3; AF4-AF9 inh: 0.1

What do the screens show for `CC1CCN(C(=O)CSc2nc(N)cc(N)n2)CC1`?
Vif TR-FRET: -4%; A1 inh: 0.6; Calb FLC: -10; T cruzi inh: -5; LANA-H2A inh: -3.8; Beta apoptosis: 1

Results for CCOc1nc2ccccc2nc1NS(=O)(=O)c1ccc(Cl)cc1 ?
Vif TR-FRET: -6%; A1 inh: 0.5; RanGTP-Impb inh: -2.3; Calb FLC: 42; T cruzi inh: 0; LANA-H2A inh: 0.8; Beta apoptosis: -1; AF4-AF9 inh: -3.6

Results for Cc1ccc(C(=O)OCC(=O)NC(=O)c2ccccc2)o1 ?
Vif TR-FRET: 17%; A1 inh: 0.1; RanGTP-Impb inh: 1.1; T cruzi inh: -7; LANA-H2A inh: 0.0; Beta apoptosis: -6; AF4-AF9 inh: 8.3

How did Cc1cc(=O)n2c(C(=O)Nc3ccc(C)c(C)c3)c(C(=O)Nc3ccccc3)sc2n1 do in these assays?
Vif TR-FRET: -7%; A1 inh: 0.1; RanGTP-Impb inh: 3.5; Calb FLC: 14; T cruzi inh: 16; LANA-H2A inh: -8.9; Beta apoptosis: 0; AF4-AF9 inh: -4.0

Results for Cc1cc2oc(=O)ccc2cc1[N+](=O)[O-] ?
A1 inh: -2.0; RanGTP-Impb inh: -0.8; Calb FLC: 0; T cruzi inh: -13; LANA-H2A inh: 1.4; AF4-AF9 inh: -3.0

Results for CCN1CCSc2ccc(C(=O)NCc3ccccc3Br)cc21 ?
A1 inh: 0.8; RanGTP-Impb inh: -1.6; Calb FLC: -5; T cruzi inh: 30; LANA-H2A inh: 2.8; Beta apoptosis: 0; AF4-AF9 inh: -3.3

How did Cc1cc(C)cc(NC(=O)Nc2c(Br)cnn2C)c1 do in these assays?
Vif TR-FRET: -10%; A1 inh: 0.0; RanGTP-Impb inh: -0.5; Calb FLC: -11; T cruzi inh: 0; LANA-H2A inh: -11

How did CC(C)C(OC(=O)CN1C(=O)c2ccccc2C1=O)C(=O)NC1CCCCC1 (stereo not drawn) do in these assays?
A1 inh: -0.1; RanGTP-Impb inh: inconclusive; Calb FLC: 1; T cruzi inh: -1; LANA-H2A inh: -7.9; Beta apoptosis: -3; AF4-AF9 inh: 0.0

Results for CCN(CC)S(=O)(=O)c1ccc(NC(=O)c2ccc(N3CCCC3=O)cc2)cc1 ?
Vif TR-FRET: -2%; A1 inh: 0.3; LANA-H2A inh: 2.0; Beta apoptosis: 3; AF4-AF9 inh: 1.3

What do the screens show for `COc1ccc(-c2noc(C)c2-c2ccc3ccccc3n2)c(O)c1`?
Vif TR-FRET: 8%; A1 inh: 0.8; RanGTP-Impb inh: 5.8; Calb FLC: -2; T cruzi inh: 14; LANA-H2A inh: -4.8; Beta apoptosis: 14

How did O=C1c2ccccc2-c2onc3c(N4CCN(CCO)CC4)cc(N4CCN(C(=O)c5ccco5)CC4)c1c23 do in these assays?
A1 inh: 0.1; RanGTP-Impb inh: 2.0; Calb FLC: -10; T cruzi inh: 32; LANA-H2A inh: -12; Beta apoptosis: 13; AF4-AF9 inh: 76*

What do the screens show for `O=C(CC1SC(N2CCCC2)=NC1=O)Nc1ccc(C(=O)Nc2ccccc2)cc1` (stereo not drawn)?
Vif TR-FRET: -2%; A1 inh: 0.2; RanGTP-Impb inh: -1.0; Calb FLC: 7; T cruzi inh: -11; LANA-H2A inh: 3.2; AF4-AF9 inh: -2.3

What do the screens show for `Fc1cccc(CN2CCN3CCCC3C2C2CCCCC2)c1` (stereo not drawn)?
Vif TR-FRET: 1%; A1 inh: 0.0; RanGTP-Impb inh: 5.1; Calb FLC: -7; T cruzi inh: 24; LANA-H2A inh: 4.1; Beta apoptosis: -1

Results for CCC(C)(C)NC(=O)CN(C(=O)CCC(=O)Nc1nccs1)c1ccc2c(c1)OCCO2 ?
A1 inh: -0.2; RanGTP-Impb inh: -5.2; Calb FLC: -11; T cruzi inh: 8; LANA-H2A inh: 5.9; Beta apoptosis: -4; AF4-AF9 inh: -1.2

What do the screens show for `O=C(O)c1cccc(N/N=C/c2cccnc2)c1`?
Vif TR-FRET: -3%; RanGTP-Impb inh: 34*; T cruzi inh: 3; AF4-AF9 inh: 2.6

How did CNC(=S)NCCc1ccc(OC)cc1 do in these assays?
Vif TR-FRET: 5%; A1 inh: 0.0; RanGTP-Impb inh: 0.6; Calb FLC: -2; T cruzi inh: -9; LANA-H2A inh: 2.9; Beta apoptosis: -3; AF4-AF9 inh: -1.6

How did COc1ccccc1NC(=O)C1CCCN1C(=O)NC1CCCCC1 (stereo not drawn) do in these assays?
A1 inh: -1.3; RanGTP-Impb inh: 7.0; Calb FLC: -9; T cruzi inh: 5; LANA-H2A inh: 5.3; Beta apoptosis: -5; AF4-AF9 inh: 2.2

How did CNS(=O)(=O)c1ccc(C(C)(C)C)cc1 do in these assays?
A1 inh: -0.2; RanGTP-Impb inh: 0.4; Calb FLC: -5; T cruzi inh: 4; LANA-H2A inh: 2.2; Beta apoptosis: -3; AF4-AF9 inh: -3.2

How did Cc1ccc2sc(N3CCN(C(=O)c4ccc([N+](=O)[O-])o4)CC3)nc2c1C do in these assays?
Vif TR-FRET: 5%; A1 inh: -0.3; RanGTP-Impb inh: 1.2; Calb FLC: -1; T cruzi inh: 59*; LANA-H2A inh: -1.2; AF4-AF9 inh: -1.4

Results for CCCCNC(=O)Cn1c(=O)n(C)c2ccccc21 ?
Vif TR-FRET: 14%; A1 inh: 1.1; RanGTP-Impb inh: 1.9; Calb FLC: -5; T cruzi inh: -4; LANA-H2A inh: -2.7; Beta apoptosis: -4; AF4-AF9 inh: -6.6

What do the screens show for `CCOC(=O)C1=C(C)Nc2sc(C(=O)c3ccc(Br)cc3)c(N)c2C1c1ccc(C(=O)OC)cc1` (stereo not drawn)?
Vif TR-FRET: 0%; A1 inh: -0.5; RanGTP-Impb inh: -78; Calb FLC: 10; T cruzi inh: 76*; LANA-H2A inh: -0.6; Beta apoptosis: 13

Results for CNC(=O)CN(c1cc(C)ccc1OC)S(=O)(=O)c1ccc(C)cc1 ?
Vif TR-FRET: -9%; A1 inh: 0.6; RanGTP-Impb inh: -3.1; Calb FLC: -10; T cruzi inh: 1; LANA-H2A inh: 0.1; Beta apoptosis: -3

How did COc1ccc(N(CC(=O)Nc2cccc(C)c2)S(=O)(=O)c2c(C)noc2C)cc1 do in these assays?
A1 inh: -0.4; RanGTP-Impb inh: -0.5; Calb FLC: 0; T cruzi inh: 10; LANA-H2A inh: 4.4; Beta apoptosis: 4; AF4-AF9 inh: -2.5

What do the screens show for `COC(=O)C1CCN(Cc2ccc(OCCCN3CCN(c4ccc([N+](=O)[O-])cc4)CC3)cc2)CC1`?
Vif TR-FRET: 11%; A1 inh: -1.0; RanGTP-Impb inh: -1.5; Calb FLC: 77; T cruzi inh: 61*; LANA-H2A inh: -1.0; Beta apoptosis: 4; AF4-AF9 inh: 16

How did O=C(NCc1ccccc1)NC(O)C(Cl)(Cl)Cl (stereo not drawn) do in these assays?
Vif TR-FRET: -1%; A1 inh: 0.7; RanGTP-Impb inh: 3.1; Calb FLC: -7; T cruzi inh: -5; LANA-H2A inh: -1.8; Beta apoptosis: -1; AF4-AF9 inh: -0.5

What do the screens show for `O=C(NCc1ccc(Cl)cc1)c1ccc(NC(=O)C2CCCO2)cc1` (stereo not drawn)?
A1 inh: 0.1; RanGTP-Impb inh: 2.2; Calb FLC: -5; T cruzi inh: -7; LANA-H2A inh: -1.5; Beta apoptosis: 2; AF4-AF9 inh: -0.7

How did O=C(C1CCCCN1S(=O)(=O)c1ccccc1)N1CCCCC1 (stereo not drawn) do in these assays?
Vif TR-FRET: -1%; RanGTP-Impb inh: -1.0; Calb FLC: inconclusive; T cruzi inh: -5
